2A StopGo: High Throughput Screening for Foot and Mouth Disease Virus Antivirals; human cells with a luciferase reporter of 2A StopGo recoding; control for the full effect not named in the record; Potency, µM (series often up to 57.9 µM), inactives show top-dose signal change, negative = less light; hit rate 1.2% among 410,000; AID 1159524, 2015; active = well fitted falling curve with a large enough effect; inconclusive = small, poorly fitted or top-dose-only effect; inactive = no such curve, though single readings can be large or run the other way; tested in HEK293T cells; further: on the % scale 0 is the no-effect control and ±100 the full control effect; nearly all actives have a fitted effect of over 45% in size; luciferase light after 4 h
RE007 growth inh: qHTS Assay for Inhibitors of the HIV-1 protein Vpr. S. pombe RE007 Vpr strain, BacTiter-Glo ATP luminescence, 24 h; control for the full effect not named in the record. Potency, µM (titrated, usually from 92.2 µM), inactives show top-dose activity change, negative = less growth. hit rate 0.21% among 360,000; active = well fitted falling curve with a large enough effect; inconclusive = small, poorly fitted or top-dose-only effect; inactive = no such curve, though single readings can be large or run the other way;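 further: on the % scale 0 is the no-effect control and ±100 the full control effect; nearly all actives have a fitted effect of over 50% in size; the assay follows cell death caused by Vpr and the record does not say whether a fall means rescue or toxicity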
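Fission yeast strain RE007, carrying one chromosomally integrated HIV-1 vpr copy, was seeded at OD 0.01 in PMG+AL medium with 23 nL pinned compound. After 24 h at 30 °C and 99% humidity, viability was read by BacTiter-Glo luminescence.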
SARS PLP yeast: qHTS of Yeast-based Assay for SARS-CoV PLP; S. cerevisiae expressing SARS-CoV PLpro, growth rescue; control for the full effect not named in the record; Potency, µM (series often up to 32.9 µM), without a hit: top-dose activity, positive = growth rescue; hit rate 0.19% among 330,000; AID 485353, 2010; active means well fitted rising curve with a large enough effect; inconclusive means small, poorly fitted or top-dose-only effect; inactive means no such curve, though single readings can be large or run the other way; further: 0% is about no effect; nearly all actives have a fitted effect of over 55% in size; growth read by luminescence after 48 h
An asterisk follows results filed as active; u = inconclusive; & = joins results of further samples; [ ] = dose if it differs, or a comment. Potency means the concentration at half of the fitted maximal effect. This is a subset; the hit share may differ from the screen's.

compound	2A StopGo	RE007 growth inh	SARS PLP yeast
C[C@H](CO)N1C[C@H](C)[C@@H](CN(C)Cc2ccncc2)Oc2ccc(NC(=O)Cn3cnnn3)cc2C1=O	0.8%	-0.1%	-9.7%
CCCN(CC(=O)Nc1ccccc1C)C(=O)Cc1c(C)nc2ccccc2c1C	1.3%	-5.2%	-4.4%
Cn1cccc1/C=C(\C#N)c1ccccc1	8.0%	-8.7%	-0.9%
O=C(COc1ccc(Cl)cc1)Nc1ccc(CN2CCOCC2)cc1	u	-19.6%	-0.3%
O=C1OC(CC(=O)N(Cc2nnc(-c3ccccc3Cl)o2)C2CC2)c2ccccc21 (configuration not stated)	7.3%	-12.1%	-0.9%
COc1ccc(S(=O)(=O)Nc2cccc3c2O[C@H](CN(C)S(=O)(=O)c2ccc(OC)cc2)[C@@H](C)CN([C@H](C)CO)C3=O)cc1	14.9%	-10.5%	2.2%
COc1ccc(C(=O)NCC(=O)OCc2nc(N)nc(Nc3ccccc3C)n2)cc1	-17.1%	-11.1%	-22.8%
O=C(NCc1ccc2c(c1)OCO2)c1cc([N+](=O)[O-])ccc1N1CCOCC1	0.0%	-4.8%	-8.1%

(next part)
compound	2A StopGo	RE007 growth inh	SARS PLP yeast
C#CCOCCOCCOCCNc1nc(N2CCN(C(=O)[C@H](CCC(=O)O)n3cc([C@@H](N)CO)nn3)CC2)nc(N2CCN(C(=O)[C@H](CCC(=O)O)n3cc([C@@H](N)CCSC)nn3)CC2)n1	-12.6%	1.7%	-2.5%
CCOc1ncccc1C(=O)OCC(=O)Nc1ccc(S(=O)(=O)N2CCCC2)cc1	u	16.8%	5.2%
CN(Cc1cccs1)C(=O)Cc1csc(-c2ccccc2)n1	64.8%[activator]	9.0%	-7.1%
c1ccc(Cn2cc(-c3cccnc3)cn2)cc1	41.9%[activator]	12.6%	11.7%
COc1ccc(CN(C)C(=O)Cc2ccc(OC)c(S(=O)(=O)N3CCOCC3)c2)cc1OC	10.2%	-21.2%	2.7%
CCOC(=O)[C@@H]1[C@H]2COc3ccc(Br)cc3[C@@H]2N2C(=O)N(c3ccc(C)cc3)C(=O)[C@@]12C	-2.2%	-5.4%	-0.6%
COc1ccc(-n2cc(-c3ccc(OC(F)F)cc3)[n+]3c2CCCCC3)cc1	u	1.5%	1.1%
O=C1CCC/C=C/C[C@@H](CC(=O)N(CCO)Cc2ccccc2)C(=O)NC[C@H](c2ccccc2)O1	0.0%	5.8%	3.3%

Continuation.
compound	2A StopGo	RE007 growth inh	SARS PLP yeast
COc1ccccc1OCCNC(=O)C1CC(=O)N(c2ccccc2OC)C1 (configuration not stated)	0.5%	-19.1%	-2.2%
CN(CCOc1ccc(C=C2C(=O)NC(=O)NC2=O)cc1)c1ccccn1	39.1%[activator]	-27.5%	-0.9%
COc1ccc(CN(C)C[C@H]2Oc3c(NC(=O)Nc4ccccc4)cccc3C(=O)N([C@H](C)CO)C[C@@H]2C)cc1	11.6%	-0.4%	-32.8%
CCNC(=O)N(C)C[C@H]1N[C@@](C)(C(=O)OC)[C@H]2C(=O)N(Cc3ccccc3)C(=O)[C@@H]12	0.0%	10.5%	0.4%
CCCC1(c2ccccc2)NC(=O)N(CC(=O)Nc2cc(C)on2)C1=O (configuration not stated)	1.0%	-0.5%	0.8%
C[C@H](CO)N1C[C@H](C)[C@@H](CN(C)C(=O)NC2CCCCC2)Oc2ccc(NC(=O)Nc3ccc(C(F)(F)F)cc3)cc2C1=O	0.0%	0.3%	6.5%
COCCNC(=O)c1sc2ncn(CC(=O)Nc3ccc(C)c(Cl)c3)c(=O)c2c1C	-2.9%	-6.0%	1.1%
Cc1ccc2[nH]c3c(c2c1)SC(C)(C)CC3=O	-3.8%	-11.1%	0.2%

Continued.
compound	2A StopGo	RE007 growth inh	SARS PLP yeast
Cc1ccc(S(=O)(=O)N2CCOCC2)cc1C(=O)OCC(=O)NC1CC1	-4.6%	-10.3%	-6.2%
N#Cc1ccsc1NC(=O)C1CCN(C(=O)c2ccc(F)cc2)CC1	-10.0%	-6.5%	5.9%
CC(C)(C)OC(=O)CNC(=O)c1[nH]cnc1C(=O)NCCCCCN	-15.7%	10.6%	-7.1%
O=C(C(c1ccccc1)c1ccccc1)N1CCN(c2ccccn2)CC1	u	6.4%	2.4%
Cc1csc(=O)n1CCC(=O)OCc1nnc(-c2ccc([N+](=O)[O-])cc2)o1	-23.7%	-11.5%	-3.5%
O=c1cc(OCc2ccccc2)cc[nH]1	-10.7%	-8.5%	-4.2%
COC(=O)C1=C(c2ccccc2OCc2ccccc2)C[C@@H]2CC[C@H]1N2C(=O)NCCCOC(C)C	-10.6%	8.4%	-14.9%
CCCCN1CC(=O)N2[C@H]3c4cc(Br)ccc4OC[C@@H]3[C@H](C(=O)OCC)[C@]2(C)C1=O	-12.0%	-2.4%	-3.9%

Grouped by structure, those above with a nitro group on carbon
compound	2A StopGo	RE007 growth inh	SARS PLP yeast
O=C(NCc1ccc2c(c1)OCO2)c1cc([N+](=O)[O-])ccc1N1CCOCC1	0.0%	-4.8%	-8.1%
Cc1csc(=O)n1CCC(=O)OCc1nnc(-c2ccc([N+](=O)[O-])cc2)o1	-23.7%	-11.5%	-3.5%

(next part)
compound	2A StopGo	RE007 growth inh	SARS PLP yeast
O=C1CCCC(O)=C1C=Nc1cccc(C(F)(F)F)c1	-4.6%	u	0.8%
Cc1nn(-c2ccc(F)cc2)c(Cl)c1C(=O)NCC1CCCO1 (configuration not stated)	-11.7%	8.4%	-0.7%
CCCCC(=O)Nc1nc2ccc(C(=O)OC)cc2s1	39.1%[activator]	-1.4%	-7.1%
C[C@H]1CN([C@@H](C)CO)C(=O)c2cc(NC(=O)C3CCCCC3)ccc2O[C@H]1CN(C)C(=O)Nc1ccc2c(c1)OCO2	-15.0%	2.0%	1.9%
COc1ccccc1CNC(=O)CN1C(=O)NC2(CCCc3sccc32)C1=O (configuration not stated)	-4.4%	-7.2%	-2.3%
Cc1ccc(NC(=O)C(C)Sc2nnc(C)n2C2CC2)cc1S(=O)(=O)N1CCOCC1 (configuration not stated)	4.5%	-6.5%	-2.5%
COc1ccc(NCC(=O)Nc2cccc(C(F)(F)F)c2)cc1S(=O)(=O)N1CCOCC1	u	-9.5%	-0.1%
O=C(Nc1cccc(S(=O)(=O)NC2=NCCCCC2)c1)c1cc(-c2ccncc2)nc2ccccc12	-20.7%	0.5%	-0.1%

The list continues.
compound	2A StopGo	RE007 growth inh	SARS PLP yeast
O=C(Nc1nccs1)c1ccc(COc2c(F)c(F)cc(F)c2F)o1	29.7%	-3.8%	0.0%
COCCn1c(SCC(=O)Nc2cc(C)on2)nc2ccccc2c1=O	-10.0%	7.6%	1.0%
CCN(C(=O)COC(=O)CCC(=O)c1cccs1)c1ccccc1	-18.3%	-7.2%	1.5%
CC(=O)c1ccc(OCC(=O)N(C)CC(=O)Nc2ccc(N3CCOCC3)cc2)cc1	-7.8%	2.1%	2.2%
Cc1ccc(C)c(N2CCN(C(=O)CCc3nc(-c4cccc(Br)c4)no3)CC2)c1	-21.1%	9.1%	-6.0%
CN(CC(=O)Nc1ccc(N2CCOCC2)cc1)C(=O)CSc1ccccc1F	6.3%	1.7%	-9.4%
CC(OC(=O)C1CCCCC1)C(=O)Nc1cccc([N+](=O)[O-])c1 (configuration not stated)	-28.4%	8.2%	9.6%
COc1ccc(CCNC(=O)c2cccc(S(=O)(=O)N3CCc4ccccc4C3)c2)cc1	u	-15.9%	-5.5%

One compound at a time (already shown).
CC(OC(=O)C1CCCCC1)C(=O)Nc1cccc([N+](=O)[O-])c1 (configuration not stated) across the screens: 2A StopGo = -28.4%; RE007 growth inh = 8.2%; SARS PLP yeast = 9.6%
O=C1CCC/C=C/C[C@@H](CC(=O)N(CCO)Cc2ccccc2)C(=O)NC[C@H](c2ccccc2)O1 across the screens: 2A StopGo = 0.0%; RE007 growth inh = 5.8%; SARS PLP yeast = 3.3%

Next part:
compound	2A StopGo	RE007 growth inh	SARS PLP yeast
COc1ccc(CC(=O)Nc2cccc(S(=O)(=O)N3CCCCC3)c2)cc1	17.9%	-4.4%	4.4%
CCN(C(=S)NC(=O)c1ccco1)c1cccc2ccccc12	-0.2%	-2.4%	0.1%
O=C(COc1cccc(F)c1)NNC(=O)Cc1ccc(S(=O)(=O)N2CCOCC2)s1	-1.1%	-0.4%	5.1%
CCOC(=O)C1=C(COC(=O)c2ccc([N+](=O)[O-])o2)NC(=O)NC1C (configuration not stated)	-28.9%	-1.4%	-3.0%
Cc1cc(NS(=O)(=O)c2ccc(NC(=O)c3cnc(Cl)c(Cl)c3)cc2)nc(C)n1	11.2%	-5.2%	2.3%
CCc1ccc(OCc2n[nH]c(=S)n2C(C)CCCC(C)C)cc1 (configuration not stated)	-9.6%	12.1%	24.5%
CCN(C(=O)C(C)Sc1ccc(S(=O)(=O)N2CCOCC2)cn1)c1ccccc1 (configuration not stated)	-15.7%	-5.5%	4.7%
COc1ccc(NC(C)=O)cc1NS(=O)(=O)c1ccc2c(c1)OCCO2	-7.1%	-11.4%	0.2%

The list goes on.
compound	2A StopGo	RE007 growth inh	SARS PLP yeast
O=C1[C@H](Oc2ccccc2)[C@@H](c2ccncc2)N1c1ccncc1	-11.6%	-15.8%	2.4%
CC[C@]12c3[nH]c4ccccc4c3CCN1C(=O)C(CC(=O)NCc1cccc(C(F)(F)F)c1)C[C@@H]2C(=O)N1CCN(C(=O)c2ccco2)CC1 (some centres not stated)	20.4%	8.3%	-4.1%
Cc1ccc(CN2C(=O)C(CC(C)C)Nc3ncnc(N4CCN(c5ccccc5)CC4)c32)cc1 (configuration not stated)	u	2.4%&0.9%	1.8%
CC1(c2ccc3c(c2)OCCO3)NC(=O)N(CC(=O)Nc2ccccc2SCC#N)C1=O (configuration not stated)	9.4%	3.7%	1.6%
C#CCOCCOCCOCCNc1nc(N2CCN(C(=O)C([C@@H](C)O)n3cc([C@@H](N)CCCCN)nn3)CC2)nc(N2CCN(C(=O)[C@H](CO)n3cc([C@@H](N)C(C)C)nn3)CC2)n1 (some centres not stated)	-22.5%	-15.4%	0.2%
O=C(CNC(=O)c1cccc(Cl)c1)NCC(c1cccs1)N1CCOCC1 (configuration not stated)	-3.5%	8.8%	1.2%
Cc1cccc(OCC(=O)Nc2cc(S(=O)(=O)N3CCCCC3)ccc2N2CCN(C)CC2)c1	-9.9%	-1.0%	1.4%
CCOc1ccc(-n2c(C)cc(/C=C3/C(=N)N4C(=NC3=O)SN=C4S(C)(=O)=O)c2C)cc1	-10.8%	-9.8%	1.1%

The list continues.
compound	2A StopGo	RE007 growth inh	SARS PLP yeast
COc1ccc(CN(C)CC(=O)N(C)CC(=O)Nc2ccccc2Br)cc1F	2.8%	2.6%	0.2%[6.58 µM]
O=C(CCNC(=O)c1ccc([N+](=O)[O-])cc1)Nc1ccc(Cl)c(S(=O)(=O)N2CCOCC2)c1	-24.3%	18.3%	-6.4%
Cc1ccc(C2=NNC(=O)C(c3c[nH]c4ccccc34)C2)cc1 (configuration not stated)	17.6%	11.7%	-7.0%
CCN(C(=O)COC(=O)C1=COCCO1)c1ccccc1	-3.8%	7.2%	1.1%
CCOC(=O)c1cccc(-c2c(-c3ccccc3)ncc3cc(OC)c(OC)cc23)c1	44.6%[activator]	8.8%	0.5%
CCCn1c(SCC(=O)Nc2cccc(S(=O)(=O)N3CCCC3)c2)n[nH]c1=O	-22.9%	7.3%	2.0%
C[C@H]1CN([C@@H](C)CO)C(=O)Cc2cc(NC(=O)Cn3cnnn3)ccc2O[C@H]1CN(C)Cc1ccncc1	-22.0%	3.3%	4.0%
Cn1ncc(C(N)=O)c1NC(=S)NC(=O)c1ccc(Br)o1	2.8%	-16.2%	-1.7%

Next section
compound	2A StopGo	RE007 growth inh	SARS PLP yeast
CCOCCCNC(=O)CN1C(=O)/C(=C/c2ccccc2C)Sc2ccccc21	-6.9%	-1.0%	-5.4%
CN(C(=O)CSc1nnc(-c2c[nH]c3ccccc23)n1C1CC1)C1CCS(=O)(=O)C1 (configuration not stated)	-21.7%	-7.7%	0.6%[6.58 µM]
COc1ccc(CN(CC2CCCO2)C(=O)c2cc3ccccc3oc2=O)cc1 (configuration not stated)	52.5%[activator]	3.2%	0.7%
Cc1cc(=O)oc2cc(NC(=O)c3cc(F)ccc3F)ccc12	23.5%	6.0%	1.3%
CCN(CC)CCN(C(=O)c1ccc(Br)s1)c1nc2cc3c(cc2s1)OCO3	-15.0%	-12.5%	-2.3%
CCCCN1C(=O)C(=O)N(CC(=O)c2cc(C)n(-c3cc(C)on3)c2C)C1=O	0.0%	-1.8%	0.6%
Cn1c2ccccc2c(=O)c2cc(C#CC3=CCCCC3)ccc21	-7.1%	-13.1%	-11.5%
COC(=O)[C@]1(Cc2ccccc2)N[C@H](CN(C)S(=O)(=O)c2ccc(F)cc2)[C@@H]2C(=O)N(Cc3ccccc3)C(=O)[C@@H]21	-20.7%	2.6%	-16.3%

Source: PubChem BioAssay (National Center for Advancing Translational Sciences (NCATS))
